LASV entry inh: inhibitors of Lassa virus binding or cell entry; Lassa virus pseudotype entry inhibition, cell reporter; control for the full effect not named in the record; Potency, µM (titrated, usually from 37.9 µM), for the others: at the top dose activity change, negative = inhibition, usual class: inhibitors; hit rate 1.2% among 300,000; AID 540256; active means well fitted inhibition curve with a large enough effect; inconclusive means small, poorly fitted or top-dose-only effect, or effect the other way; inactive means flat fitted curve, though single readings scatter; tested in HEK293 cells; note: % is set by controls: 0 for no effect and ±100 for the full control effect; nearly all actives have a fitted effect of over 50% in size; luciferase read-out
Cruzain inh Det: cruzain (T. cruzi) inhibition with detergent. P25779. purified cruzain, Z-FR-AMC fluorescence, 0.01% Triton. Potency, µM, for inactives: max response, negative = inhibition, usual class: inhibitors. hit rate 0.43% among 200,000; active = well fitted curve in the direction sought with a large enough effect; inconclusive = small, poorly fitted or top-dose-only effect, or another doubt; inactive = no such curve, though single readings can be large; an effect the other way counts as inactive or inconclusive;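 note: plate controls were neutral wells for no effect and buffer without enzyme for full effect; nearly all actives have a fitted effect of over 40% in size; top concentration of the series not given in the record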
Target sequence (P25779 123-467 limits assumed): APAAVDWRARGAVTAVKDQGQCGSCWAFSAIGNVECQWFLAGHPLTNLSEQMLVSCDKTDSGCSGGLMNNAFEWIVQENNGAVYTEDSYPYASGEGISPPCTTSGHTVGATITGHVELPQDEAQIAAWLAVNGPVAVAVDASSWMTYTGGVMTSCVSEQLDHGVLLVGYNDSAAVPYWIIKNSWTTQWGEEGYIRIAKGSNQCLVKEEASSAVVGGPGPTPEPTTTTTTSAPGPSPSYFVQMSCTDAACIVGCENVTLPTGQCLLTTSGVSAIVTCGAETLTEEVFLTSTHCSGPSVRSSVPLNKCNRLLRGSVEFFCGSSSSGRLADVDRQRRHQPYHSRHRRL
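Detergent-containing arm of a paired screen for aggregation-based inhibition: 0.01% Triton X-100 present. Cruzain at 1.5 nM cleaved 2 uM Z-FR-AMC at pH 5.5 with 5 mM DTT; AMC fluorescence gain over 60 s measured activity.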
RE007 growth inh: less growth of the S. pombe RE007 Vpr strain; Potency, µM (highest dose often 92.2 µM), without a hit: top-dose activity change, negative = less growth; hit rate 0.21% among 360,000; S. pombe RE007 Vpr strain, BacTiter-Glo ATP luminescence, 24 h; control for the full effect not named in the record; active = well fitted falling curve with a large enough effect; inconclusive = small, poorly fitted or top-dose-only effect; inactive = no such curve, though single readings can be large or run the other way;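 note: % is set by controls: 0 for no effect and ±100 for the full control effect; nearly all actives have a fitted effect of over 50% in size; the assay follows cell death caused by Vpr and the record does not say whether a fall means rescue or toxicity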
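Fission yeast strain RE007, carrying one chromosomally integrated HIV-1 vpr copy, was seeded at OD 0.01 in PMG+AL medium with 23 nL pinned compound. After 24 h at 30 °C and 99% humidity, viability was read by BacTiter-Glo luminescence.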
NS1 inh: blocks influenza NS1 protein function; hit rate 0.4% among 270,000; S. cerevisiae slowed by influenza A NS1, growth recovery by OD600; Potency, µM (series often up to 46.1 µM), for inactives: top-dose activity, positive = more growth; AID 2326; note: actives are rising curves; nearly all actives have a fitted effect of over 50% in size
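Read-out: OD600 growth recovery of NS1-expressing budding yeast. Cells grown overnight at 30C in -URA glucose medium, washed, resuspended and diluted 1:100 in 2% galactose assay medium, pH 6.0. Same strain lacking NS1 served as positive control.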
SARS PLpro yeast: blocks SARS-CoV papain-like protease in a yeast assay; S. cerevisiae expressing SARS-CoV PLpro, growth rescue; control for the full effect not named in the record; Potency, µM (series often up to 32.9 µM), for inactives: at the highest dose activity, positive = growth rescue; hit rate 0.19% among 330,000; note: 0% is about no effect; nearly all actives have a fitted effect of over 55% in size; growth read by luminescence after 48 h
Cruzain noTriton: cruzain (T. cruzi) inhibition without detergent; purified cruzain, Z-FR-AMC fluorescence, no detergent; Potency, µM, for the others: max response, negative = inhibition, hits mostly inhibitors; hit rate 2.3% among 200,000; AID 1476; active = well fitted curve in the direction sought with a large enough effect; inconclusive = small, poorly fitted or top-dose-only effect, or another doubt; inactive = no such curve, though single readings can be large; an effect the other way counts as inactive or inconclusive;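 note: plate controls were enzyme without inhibitor for no effect and buffer without enzyme for full effect; nearly all actives have a fitted effect of over 40% in size; top concentration of the series not given in the record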
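Purified cruzain at 1.5 nM, pre-incubated 15 min with compound at room temperature in 100 mM sodium acetate pH 5.5, 5 mM DTT, 0.00005% Triton X-100. Reaction started with 2 uM Z-FR-AMC; AMC fluorescence increase over 60 s gives rate.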
StopGo reporter: lowers the luciferase signal of an FMDV 2A StopGo reporter; human cells with a luciferase reporter of 2A StopGo recoding; control for the full effect not named in the record; Potency, µM (highest dose often 57.9 µM), for the others: at the top dose signal change, negative = less light; hit rate 1.2% among 410,000; AID 1159524; active = well fitted falling curve with a large enough effect; inconclusive = small, poorly fitted or top-dose-only effect; inactive = no such curve, though single readings can be large or run the other way; tested in HEK293T cells; note: % is set by controls: 0 for no effect and ±100 for the full control effect; nearly all actives have a fitted effect of over 45% in size; luciferase light after 4 h
MARV entry inh: inhibitors of Marburg virus binding or cell entry. Marburg virus pseudotyped entry inhibition, cell reporter; control for the full effect not named in the record; about a third of the inactives were read at about 46 µM. Potency, µM (series often up to 37.8 µM), for inactives: at the top dose activity change, negative = inhibition, usual class: inhibitors. hit rate 1.8% among 300,000; active = well fitted inhibition curve with a large enough effect; inconclusive = small, poorly fitted or top-dose-only effect, or effect the other way; inactive = flat fitted curve, though single readings scatter; tested in HEK293 cells; about a fifth of its hits are not listed in these tables; note: % is set by controls: 0 for no effect and ±100 for the full control effect; luciferase read-out
An asterisk follows results filed as active; u = inconclusive; x = not tested or not shown; & = joins results of further samples; [ ] = dose if it differs, or a comment. Unless noted, calls come from the whole dose curve; as a rule, active means well fitted rising curve with a large enough effect; inconclusive means small, poorly fitted or top-dose-only effect; inactive means no such curve, though single readings can be large or run the other way. Potency is the fitted concentration of half-maximal effect.

SMILES	LASV entry inh	Cruzain inh Det	RE007 growth inh	NS1 inh	SARS PLpro yeast	Cruzain noTriton	StopGo reporter	MARV entry inh
Cc1ccc(CN(CC(O)COc2cccc3[nH]cc(C)c23)C(C)(C)C)cc1 (configuration not stated)	x	x	-16%	0%	6%	x	u	-10%
NCC(O)COc1ccc2c(c1)OCO2 (configuration not stated)	9%	8.2%	2%	2%	11%	8%	11%	u
Cc1ccc(NC(=O)C2CC(O)CN2C(=O)OCc2ccccc2)cc1C (configuration not stated)	x	x	11%	-3%	0%	x	-9%	x
O=C(NCCc1c[nH]c2ccccc12)/C(=C\c1cccnc1)NC(=O)c1cccs1	8%	-4.2%	-2%	-10%	-14%	1%	0%	23%
Cc1cccc(OC(C)C(=O)Nc2ccccc2C(=O)N2CCCCC2)c1 (configuration not stated)	7%	x	-3%	10%	-1%	x	-17%	-30%[46.1 µM]
NS(=O)(=O)c1ccc(CNC(=O)c2sccc2-c2ccccc2)cc1	24%	x	-4%	3%	5%	x	-27%	-11%
O=c1[nH]c(=O)n(-c2ccccc2)c(O)c1/C=C1/C(c2ccccc2)=Nc2ccccc21	-14%	-5.3%	u	-31%	-68%	-12%	u	-15%
O=C(O)/C=C/c1cn(Cc2ccccc2)nc1-c1cccnc1	x	x	-4%	-8%	-2%	x	-5%	x
CCOc1ccc(/C=N/NC(=O)c2cc(-c3ccco3)nc3ccccc23)cc1	-21%	-21%	8%	26%	-5%	-26%	0%	u
COc1ccc(-c2csc(NC(=S)NC(=O)c3ccc(S(=O)(=O)N(C)C)cc3)n2)cc1OC	x	x	-4%	13%	2%	x	-7%	x
CCn1ccnc1[C@@H]1C[C@H]2CN(Cc3ccccc3OC)C(=O)[C@]23CCCN13	x	x	-20%	-1%	0%	x	-21%	x
CC1CCN(c2cc(N3CCOCC3)c([N+](=O)[O-])cc2F)CC1	u	-7.7%	-4%	-60%	-9%	4%	-20%	-2%[46.1 µM]
CC(CCc1ccccc1)NC(=O)CN1C(=O)NC2(CCCCC2)C1=O (configuration not stated)	x	x	3%	x	-4%	x	6%	-2%[46.1 µM]
O=C(COc1ccccc1[N+](=O)[O-])Nc1ccccc1N1CCCC1	22%	x	12%	-3%	0%	x	-27%	u
CN1CCN(C(c2ccc(Cl)cc2Cl)c2sc3nc(-c4ccco4)nn3c2O)CC1 (configuration not stated)	10%[46.1 µM]	0.0%	x	x	x	-4%	-13%	x
C=CCN(CC(=O)NCC1CCCO1)C(=O)CCC(=O)Nc1cc(C)on1 (configuration not stated)	-8%	3.9%	-5%	-1%	14%	9%	-1%	12%
Cc1cccc(NC(=O)Cc2nnc(NC(=O)Nc3ccccc3F)s2)c1	x	x	1%	3%	0%	x	6%	x
COc1ccc(CCNC(=O)CCS(=O)(=O)c2ccc(C)cc2)cc1OC	5%	8.9%	8%	-1%	0%	-7%	3%	21%
O=[N+]([O-])c1ccc(NN=Cc2ccc(O)cc2)nc1	u	x	-3%	x	x	x	-17%	u
CCOC(=O)N1CCC(NC(=O)c2ccc3c(c2)N(C)C(=O)/C(=C/c2cccc(OC)c2)S3)CC1	x	x	-8%	9%	-1%	x	u	x
COc1cccc(CSc2nnnn2-c2ccc(O)cc2)c1	u	x	7%	x	-5%	x	-18%	6%[14.2 µM]
CCCN(CCC)c1nc2ccccc2nc1C(C#N)C(=O)OCCOC (configuration not stated)	u	-1.1%	7%	-125%	x	u	-22%	u
CCCCC(CCC(=O)Nc1nccs1)C(=O)O (configuration not stated)	1%	-2.2%	13%	-3%	-5%	0%	20%	3%
O=c1cc(O)nc(-c2ccccc2)s1	6%	x	4%	x	0%	x	0%	-3%[14.2 µM]
O=C(COC(=O)c1ncc(Cl)c(Cl)c1Cl)NNC(=O)c1ccccc1	9%	x	17%	x	1%	x	-18%	-10%
CCCCCCCCCOC(=O)C[n+]1csc(CCO)c1C	-11%	-1.8%	-6%	-6%	-21%	1%	-19%	u
COc1ccc(CCC(=O)NNC(=O)Cn2nc(C)cc2C)cc1	6%[46.1 µM]	x	-2%	-2%	x	x	-20%	-1%[46.1 µM]
O=C(COC(=O)CCC(=O)c1ccc(F)cc1)Nc1nnc(-c2ccccc2)o1	9%	x	-14%	x	0%	x	-8%	13%[46.1 µM]
CC(N=Cc1cccc(O)c1O)c1ccccc1 (configuration not stated)	14%	-6.0%	-30%	-107%	-10%	-19%	u	-1%
COc1ccc(C(C)N2CC34C=CC(O3)C(C(=O)OCC(C)C)C4C2=O)cc1 (configuration not stated)	7%	-0.4%	x	0%	2%	-5%	x	-1%
COc1ccccc1CNC(=O)CCC1N=C2c3ccccc3N=C(SCc3ccc(Cl)cc3)N2C1=O (configuration not stated)	2%[46.1 µM]	0.9%	x	x	x	16%	24%	x
COCCn1c(=O)[nH]c(=O)c2c1nc(-c1ccc(-c3ccc(Cl)cc3[N+](=O)[O-])o1)n2Cc1ccccc1	10µM*	-11%	-1%	21%	2%	-12%	u	u
Cc1nc2cc(F)ccc2n1C1CCN(Cc2nnnn2CCc2ccccc2)CC1	0%	2.3%	2%	-59%	3%	u	-15%	-26%&-26%
C/C(=N\NC(=O)c1cc(-c2ccccn2)nc2ccccc12)c1cccc([N+](=O)[O-])c1	10%	x	-6%	x	1%	x	-26%	-7%
CC(C)N1CCC(N2CCN(Cc3cc(F)ccc3-n3cccn3)CC2CCO)CC1 (configuration not stated)	-24%	x	-13%	-1%	0%	x	-3%	-8%[46.1 µM]
CC(=O)c1cc(CN2CCN(C3CCN(C(C)C)CC3)C(CCO)C2)cs1 (configuration not stated)	x	x	12%	-5%	0%	x	-10%	x
Cc1cc(=O)n2nc(N3CCCC(C(=O)N4CCOCC4)C3)sc2n1 (configuration not stated)	2%	3.8%	-2%	7%	1%	-5%	13%	15%
COc1ccc(OC)c(S(=O)(=O)N2Cc3ccccc3CC2C(=O)Nc2ccc(Cl)cc2)c1 (configuration not stated)	u	-4.3%	x	x	x	u	-1%	0%[46.1 µM]
COc1ccc(CNC(=O)c2ccc(NC(=O)C3CCCO3)cc2)cc1 (configuration not stated)	12%	1.3%	-9%	0%	-1%	-9%	37%[activator]	8%
COC1CCN(Cc2c(C(=O)N3CCc4ccccc4C3)nc3ccc(Cl)cn23)CC1	4%	x	-1%	-6%	-4%	x	-20%	-7%
Cc1cccc(Oc2coc3cc(OCC(=O)NC4CCCCC4)ccc3c2=O)c1	-1%[46.1 µM]	-5.5%	x	x	x	-12%	u	-14%[46.1 µM]
O=C(CSc1ccc([N+](=O)[O-])cc1)c1ccccc1	6%	x	-24%	x	x	x	1%	u
Cc1ccc(OCC(=O)Nc2ccc(OCc3cc(=O)n4cccc(C)c4n3)cc2)cc1C	5%[46.1 µM]	1.5%	x	x	x	-4%	-17%	x
Cc1ccc(NC(=O)CSc2nnc(COc3ccc(C#N)cc3)n2-c2ccccc2)cc1C	u	-0.5%	3%	-41%	4%	-16%	-3%	7.3µM*
CCOc1ccc2ccccc2c1/C=N/NC(=O)CNC(=O)c1ccccc1F	3%[46.1 µM]	x	-2%	-38%	-3%	x	-7%	u
COc1cc(/C=N/Nc2nc(N3CCCC3)nc(N3CCCC3)n2)ccc1O	-19%	-2.7%	-5%	13%	1%	6%	-19%	-4%
Cc1ccc(C(C)C)c(OCCNC(=S)Nc2cccc3ccccc23)c1	16%	3.2%	-20%	5%	4%	-7%	u	u
O=C(CCOc1ccccc1)N(Cc1cccnc1)c1nc2c(F)cccc2s1	5%[46.1 µM]	-5.7%	x	x	x	-1%	-18%	x
CC(C)Cn1c(N)c(C(=O)CSc2ncn[nH]2)c(=O)n(C)c1=O	-5%	x	-2%	x	x	x	5%	0%[46.1 µM]
Cc1ccc(CN2CCN(Cc3ccc(OC(C)C)cc3)CC2CCO)o1 (configuration not stated)	11%	x	-1%	-1%	-1%	x	-18%	-11%[46.1 µM]
CC(C)(O)c1ccc2c(c1)CCC1C(C)(C(=O)O)CCCC21C (configuration not stated)	x	x	1%	9%	7%	x	-7%	x
CCOC(=O)CC1=NC(=O)CS1	15%	-0.2%	2%	9%	3%	-2%	-1%	9%
COc1ccc(CN2CCC(n3nccc3NC(=O)C3CC3)CC2)cc1O	2%	x	0%	4%	-10%	x	-24%	2%
C=CCN(c1ccc(C(=O)Nc2cccc([N+](=O)[O-])c2)cc1)S(C)(=O)=O	-9%	x	-17%	2%	0%	x	u	-48%[46.1 µM]
COC(=O)c1ccccc1NC(=O)c1cc(C2CC2)on1	x	-4.8%	-16%	-38%	-1%	8%	0%	x
COc1ccc(N(CC(=O)NCc2ccc(F)cc2)C(=O)CCC(=O)Nc2ccccn2)cc1	x	x	-8%	3%	0%	x	23%	-11%[46.1 µM]
COc1cccc(CNC(=O)Cc2c(C)c3cc4c(C)coc4cc3oc2=O)c1	2%[46.1 µM]	0.4%	x	x	x	13%	-2%	8%[46.1 µM]
Cc1ccc(N(C(=O)c2csnn2)C(C(=O)NCc2ccccc2)c2cccnc2)cc1 (configuration not stated)	0%[46.1 µM]	x	-3%	7%	1%	x	-4%	-1%[46.1 µM]
COc1ccc(-c2[nH]ncc2CN(C)CCN2CCOCC2)cc1F	-16%	x	-8%	0%	0%	x	-4%	3%[46.1 µM]
CC[C@]12c3[nH]c4cc(CCC(=O)N(C)C)ccc4c3CCN1C(=O)[C@@H](CC(=O)NCc1cccc(C(F)(F)F)c1)C[C@@H]2C(=O)N1CCN(C(=O)c2ccco2)CC1	x	x	3%	x	1%	x	-11%	5%
Cc1ccc2c(c1)nnn2C1CCN(CC(=O)NCCc2nc3ccccc3[nH]2)CC1	-10%	24%	-3%	-1%	-4%	u	x	-10%
O=C1CCN(C(=O)CCCn2c(=O)oc3ccccc32)CC1	6%	x	8%	x	3%	x	23%	8%

Screens (PubChem)
